Rango-impB inh – qHTS Assay for Inhibitors of Rango (Ran-regulated importin-beta cargo) - Importin beta complex formation. Potency, µM (titrated, usually from 92.2 µM), for inactives: top-dose inhibition of complex formation. Rango CFP/YFP FRET sensor + importin beta, 45 min. AID 540263, 2011. 340,000 tested, 0.031% active; active = rising FRET ratio curve, often small or poorly fitted; inconclusive = mostly compound fluorescence or quenching in the first reads; inactive = flat curves in all reads;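 also: potency is read from the fitted curve at half-maximal effect; 0% = DMSO wells and 100% = buffer wells lacking importin beta; nearly all actives have a fitted effect of over 15% in size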
Target sequence (Q14974 whole entry, looked up): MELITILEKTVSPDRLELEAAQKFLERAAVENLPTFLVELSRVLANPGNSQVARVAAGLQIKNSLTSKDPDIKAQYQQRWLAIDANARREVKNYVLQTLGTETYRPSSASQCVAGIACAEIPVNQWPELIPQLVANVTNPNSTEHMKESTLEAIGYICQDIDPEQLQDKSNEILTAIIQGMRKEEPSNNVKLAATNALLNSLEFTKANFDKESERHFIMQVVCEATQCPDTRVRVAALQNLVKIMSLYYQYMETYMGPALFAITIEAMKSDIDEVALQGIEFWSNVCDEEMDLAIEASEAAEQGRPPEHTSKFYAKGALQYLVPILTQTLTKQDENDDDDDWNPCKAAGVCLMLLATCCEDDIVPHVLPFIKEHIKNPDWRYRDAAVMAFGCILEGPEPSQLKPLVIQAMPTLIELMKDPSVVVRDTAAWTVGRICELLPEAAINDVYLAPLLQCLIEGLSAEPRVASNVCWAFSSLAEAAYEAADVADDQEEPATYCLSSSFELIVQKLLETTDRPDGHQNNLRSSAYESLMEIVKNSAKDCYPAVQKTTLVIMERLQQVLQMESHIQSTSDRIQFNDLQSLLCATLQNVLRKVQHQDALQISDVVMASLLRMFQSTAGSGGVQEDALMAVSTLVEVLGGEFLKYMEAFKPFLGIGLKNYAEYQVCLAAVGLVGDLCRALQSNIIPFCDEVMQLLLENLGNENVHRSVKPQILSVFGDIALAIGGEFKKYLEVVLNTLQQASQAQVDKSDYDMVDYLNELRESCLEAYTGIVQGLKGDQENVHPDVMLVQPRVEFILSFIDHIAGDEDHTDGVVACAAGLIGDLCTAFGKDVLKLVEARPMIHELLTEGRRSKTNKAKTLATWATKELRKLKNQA
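Inhibition scored from the CFP 486 nm/YFP 530 nm FRET ratio 45 min after adding 0.125 microM importin beta to 50 nM Rango biosensor preincubated 5 min with compound (room temperature, PBS with DTT, Tween-20, BSA). No-importin wells as positive control.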
GLA inh pH 4.5 – qHTS Assay for Inhibitors of Human alpha-Galactosidase at pH 4.5; purified enzyme, 4-MU-alpha-Gal fluorescence, pH 4.5; activity change, negative = inhibition, % at 105 µM; 230,000 tested, under 10 active; inconclusive = small, poorly fitted or top-dose-only inhibition, or a rising curve; inactive = flat fitted curve, though single readings scatter; no compound was filed as active;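 also: 0% = full activity with enzyme and -100% = basal without enzyme; dose as in the result columns while the protocol names 77 µM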
miR-21 reporter – qHTS Assay for Modulators of miRNAs and/orActivators of miR-21. HeLa miR-21 FLuc reporter, luciferase, 48 h. Potency, µM (series often up to 38.3 µM), for the others: at the highest dose reporter change, positive = more light. 340,000 tested, under 10 active; active = well fitted rising curve with a large enough effect; inconclusive = small, poorly fitted or top-dose-only effect; inactive = no such curve, though single readings can be large or run the other way;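 also: % of control where 0% means no effect; miR-21 action dims this reporter so a rising signal means less miR-21 action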
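Compounds were titrated across several concentrations (up to approximately 40 uM) and incubated 48 hours with HeLa miR-21-FLuc reporter cells (miR-21 target sequence downstream of FLuc, endogenous miR-21). Readout was firefly luciferase luminescence after lytic detection reagent.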
Rango release inh – qHTS Assay for Inhibitors of RanGTP induced Rango (Ran-regulated importin-beta cargo) - Importin beta complex dissociation; Snurportin-1 (Homo sapiens) + GTP-binding nuclear protein Ran (Homo sapiens) + Importin …; Biochemical FRET Rango-importin beta, RanGTP-induced dissociation; Potency, µM (highest dose often 46.1 µM), for inactives: top-dose activity change, negative = inhibition; 340,000 tested, 0.071% active; AID 540253, 2011; active means falling FRET ratio curve, often poorly fitted, with flat reads before Ran was added; inconclusive means other falling curves, or compound fluorescence or quenching; inactive means flat or rising ratio curve;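 also: potency is read from the fitted curve at half-maximal effect; % of control where 0% means no effect; nearly all actives have a fitted effect of over 45% in size; -100% = wells without RanGTP and RCC1; the record marks most hits as doubtful in a second field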
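Two FRET readings bracket the reaction: one 5 min after compound meets Rango–importin beta, another 45 min after RanGTP-RCC1 (0.6 uM Ran, 0.2 uM RCC1, 2 mM GTP) is added. Only the second defines inhibition.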
* hit, by the source's call; ? = inconclusive; · = no result given; & = joins results of further samples.

SMILES	Rango-impB inh	GLA inh pH 4.5	miR-21 reporter	Rango release inh
O=C(Cc1cccs1)Nc1nnc(-c2ccccc2)s1	-0.3%	-25	-39%	12%
Cc1cc(/C=N/O)c(C)n1-c1cccc(Cl)c1	-2.8%	-12	-6%	-14%
CC(C)Oc1ccccc1C1NC(=O)CCC1[N+](=O)[O-] (stereo not drawn)	5.0%	·	2%	10%
O=C1C=C(NCc2ccc(Cl)cc2)CCC1	-2.2%	-3	0%	-13%
O=[N+]([O-])c1ccc(N=NNc2ccc([N+](=O)[O-])cc2)cc1	-0.1%	·	·	4%
O=C1CCCc2c1oc1c2CCCC1	?	·	·	1%
Cc1ccc(CNS(=O)(=O)CCNC(=O)c2ccc3c(c2)OCO3)cc1	1.3%	·	·	18%
c1cnc2nc(-c3ccc4c(c3)OCO4)cn2c1	3.1%	-2	-29%	-12%
Cc1ccc(N2CCCCn3c2nc2c3c(=O)n(CC(=O)O)c(=O)n2C)cc1	0.0%	4	0%	7%
CCCCCC[N+](C)(C)CCSSCC[N+](C)(C)CCCCCC	-3.9%	-1	1%	27%
CCOC(=O)[C@H]1[C@H]2COc3ccccc3[C@@H]2N2C(=O)c3cc(F)ccc3NC(=O)[C@@]12C	-3.9%	·	·	0%
O=C(OCCN1CCCC1)C1(c2ccccc2)CCCC1	0.1%	·	-4%	-3%
CCN(C(=O)CSc1nnnn1C)c1c(N)n(Cc2ccccc2)c(=O)[nH]c1=O	4.0%	5	0%	-3%
Cn1ccnc1SCC(=O)c1c[nH]c2ccccc12	-3.3%	6	-48%	-5%
Cc1ccccc1N(CC(=O)NC(C)(C)C)C(=O)c1ccc(-c2ccccc2)[nH]1	·	2	0%	·
CNc1c(NS(=O)(=O)c2cc(OC)ccc2OC)c(=O)oc2ccccc12	-0.2%	·	1%	4%
COC(=O)c1nnn(CC(=O)NC(=O)Nc2ccc(F)cc2)c1C(=O)OC	0.3%	-14	3%&0%	0%
O=C1C2CC=C(Cl)CC2C(=O)N1CCc1c[nH]c2ccccc12 (stereo not drawn)	8.2%	·	-30%	-6%
CN(Cc1ccccc1)S(=O)(=O)c1ccc(Cl)nc1	1.1%	11	-3%	-6%
Cc1ccc(-c2csc3ncnc(SCC(=O)Nc4nnc(C)s4)c23)cc1	0.4%	4	-8%	-4%
CCCCn1c(SCC(=O)N2CCC(C)CC2)nc2cc(S(N)(=O)=O)ccc21	6.1%	-28	-12%	-8%
Fc1ccc2cc(-c3ccccc3F)ncc2c1	0.0%	·	·	?
O=C1c2ccccc2C2=Nc3ccccc3SC(c3ccccc3F)C12 (stereo not drawn)	0.8%	-7	?	-3%
CCCCOC(=O)Nc1nccs1	3.2%	-4	-18%	7%
Cc1ccc(C)c(S(=O)(=O)NCc2ccc(C(=O)N3CCCCCC3)cc2)c1	-2.8%	-1	10%	-19%

Ordered by value in miR-21 reporter (falling): 6 from the list above.
| SMILES | Rango-impB inh | GLA inh pH 4.5 | miR-21 reporter | Rango release inh |
| --- | --- | --- | --- | --- |
| Cc1ccc(C)c(S(=O)(=O)NCc2ccc(C(=O)N3CCCCCC3)cc2)c1 | -2.8% | -1 | 10% | -19% |
| CC(C)Oc1ccccc1C1NC(=O)CCC1[N+](=O)[O-] (stereo not drawn) | 5.0% | · | 2% | 10% |
| CNc1c(NS(=O)(=O)c2cc(OC)ccc2OC)c(=O)oc2ccccc12 | -0.2% | · | 1% | 4% |
| Cc1ccc(N2CCCCn3c2nc2c3c(=O)n(CC(=O)O)c(=O)n2C)cc1 | 0.0% | 4 | 0% | 7% |
| Cc1cc(/C=N/O)c(C)n1-c1cccc(Cl)c1 | -2.8% | -12 | -6% | -14% |
| c1cnc2nc(-c3ccc4c(c3)OCO4)cn2c1 | 3.1% | -2 | -29% | -12% |

(list continues)
SMILES	Rango-impB inh	GLA inh pH 4.5	miR-21 reporter	Rango release inh
Nc1cc(=O)[nH]c(=O)n1-c1ccc(Cl)cc1	4.6%	-1	-1%	6%
O=C1CCCc2c1cc(-c1ccccc1)n2-c1ccc(O)cc1	-0.3%	0	13%	11%
COc1cc(/C=C2\CCC(C3CCCC3)C2=O)cc(OC)c1OC (stereo not drawn)	-0.2%	·	-7%	-2%
Cc1ccc(O)c(CNn2cnnc2)c1	-7.4%	-4	0%	-2%
CCOC(=O)Cc1c(C)nc2c(C#N)c[nH]n2c1=O	-3.4%	5	1%	1%
Cn1cc(Br)c(-c2cccc(NC(=O)CCCC(=O)O)c2)n1	4.7%	-1	-1%	10%
Cc1cc(C)nc(-n2nc(C)c(Br)c2Nc2ccc(Br)cc2)n1	0.3%	0	0%	1%
C=CCn1c2[n+](c3ccccc3c1=O)CCCCC2	2.8%	2	0%	0%
Cc1cc(C)c([N+](=O)[O-])cc1NC(=O)CCS(=O)(=O)c1ccccc1	0.6%	2	0%	15%
CC(=O)c1ccc(N2CCN(S(=O)(=O)c3ccc4c(c3)CC(C)N4C(C)=O)CC2)cc1 (stereo not drawn)	1.4%	·	17%	-10%
COc1ccccc1-n1cnc2cc(NS(=O)(=O)c3ccccc3)ccc21	-0.5%	-16	-10%	2%
S=C(NCCc1ccccn1)Nc1ccccc1	-0.8%	7	-25%	20%
Oc1oc(-c2ccco2)nc1C=Nc1cccc(Cl)c1	6.5%	-5	-7%	-2%
Cc1cccc2cc(C(c3nnnn3CC3CCCO3)N3CCOCC3)c(=O)[nH]c12 (stereo not drawn)	1.7%	-2	-2%	-8%
COc1cc(OC)cc(C(=O)Nc2ccc(N(C)C)c3ccccc23)c1	-1.8%	·	-1%	-10%
CCOC(=O)c1c(NC(=O)COC(=O)CCOc2ccccc2C)sc(C(=O)NC)c1C	5.7%	·	·	2%
COc1ccc(S(=O)(=O)N2CCN(c3ncccn3)CC2)cc1	-0.1%	·	·	-15%
Fc1ccc(CN2CCCCCCC2)cc1	-6.2%	-3	-3%	13%
CSc1ncccc1C(=O)NCC1CCCCC1	-0.1%	0	-5%	16%
CCCSc1nnc(Cc2cc(=O)[nH]c(=O)[nH]2)n1-c1cc(C)ccc1C	-1.0%	1	0%	-7%
CCOc1ccc(CCNc2cc(C)nc3ncnn23)cc1OCC	0.3%	4	-9%	-6%
CN(c1ccc(Cl)cc1)S(=O)(=O)c1nnc(NC(=O)c2ccco2)s1	-0.4%	·	-1%&0%	-4%
CCOC(=O)CSc1nncc2ccc(OC)c(OC)c12	7.7%	-3	-5%	-13%
Cc1sc(NC(=S)NC(=O)c2ccccc2)c(C#N)c1C	1.5%	·	·	2%
Cc1ccc(-c2nc(CS(=O)(=O)CC(=O)NCCCN(Cc3ccccc3)C(C)C)c(C)o2)cc1	-2.1%	·	12%	6%
SMILES	Rango-impB inh	GLA inh pH 4.5	miR-21 reporter	Rango release inh
COc1ccc(CCNCC(O)Cn2c3ccccc3c3ccccc32)cc1OC (stereo not drawn)	-0.5%	-15	?	-21%
O=C(N/N=C/c1ccc(Cl)cc1Cl)C1CCN(c2ncc(C(F)(F)F)cc2Cl)CC1	·	-3	0%	·
CC(C)Oc1ccc(S(=O)(=O)N2CCCCC2)cc1NC(=O)C1CCCC1	1.0%	·	·	1%
O=C(O)C1C(c2ccccc2)c2ccccc2C(O)C1CO (stereo not drawn)	-0.3%	·	·	15%
CCC/C=N/NC(=O)c1ccccc1O	-0.1%	2	-19%	-16%
CCOc1ccc(C(C(=O)NCC2CCCO2)N(CCc2cccc(C)c2)C(=O)c2snc(C(N)=O)c2N)cc1 (stereo not drawn)	-0.4%	·	2%	-1%
COc1ccc(Nc2cccccc2=O)cc1	1.4%	0	-28%	9%
NC(=O)c1cc(NC(=O)CCc2nc3ccccc3s2)cc(C(N)=O)c1	-2.8%	·	-9%	-1%
O=C(COC(=O)/C=C/c1ccc(S(=O)(=O)N2CCc3ccccc32)cc1)NC1CCS(=O)(=O)C1 (stereo not drawn)	-2.1%	-1	0%	17%
CC(C)N(C(=O)CSc1ccc(S(=O)(=O)N2CCCCC2)cn1)C(C)C	-2.3%	·	·	8%
NS(=O)(=O)c1ccc(N2N=C(c3ccccc3)CC2c2cccc(F)c2)cc1 (stereo not drawn)	3.3%	?	15%	-14%
CCCSc1nnc(-c2cnn(-c3ccccc3)c2-n2cccc2)n1C	-0.7%	1	-11%	-3%
O=C1/C(=C\c2ccc(C(F)(F)F)cc2)CSc2sccc21	4.4%	0	-24%	12%
Cc1ccc(S(=O)(=O)N2CCC(NC(=O)c3cccc(C)c3)CC2)cc1	?	3	-2%	-17%
O=C(Cc1cccc2ccccc12)NCCC1=CCCCC1	-1.2%	-11	-15%	0%
Fc1ccc(/C=N/Nc2nc(-c3cccnc3)nc3ccccc23)cc1	-0.2%	-13	5%	21%
COc1cc(C2SCC(=O)N2c2nnc(C34CC5CC(CC(C5)C3)C4)s2)cc(OC)c1OC (stereo not drawn)	0.1%	-7	-1%	0%
COc1ccc(NC(=O)c2cc3c(=O)n4ccccc4nc3n2C)cc1OC	?	-6	-9%	-8%
Cc1cccc(NC(=S)NCc2ccc(F)cc2)c1C	-0.7%	·	5%	2%
Cc1cc(NC(=O)CSc2cn(CC(=O)N(C(C)C)C(C)C)c3ccccc23)no1	-3.2%	·	9%	3%
C=CCOCC(O)Cn1c(N2CCCC2)nc2c1c(=O)[nH]c(=O)n2C (stereo not drawn)	2.4%	·	-3%	-3%
O=C(Nc1cc(Cl)ccc1Cl)c1cc(-c2ccco2)on1	-1.6%	·	-10%	-1%
Cn1ncc(N2CCN(C(=O)c3ccc(Cl)cc3)CC2)c(Cl)c1=O	-0.9%	2	-12%	0%
CCN(C[C@H]1N[C@@](Cc2ccccc2)(C(=O)OC)[C@H]2C(=O)N(Cc3ccccc3)C(=O)[C@@H]12)C(C)=O	-3.4%	·	·	9%
O=C(Nc1cccc(F)c1)c1ccc(-c2ccccc2Cl)o1	-1.7%	9	-66%	15%
SMILES	Rango-impB inh	GLA inh pH 4.5	miR-21 reporter	Rango release inh
O=C(CC1Sc2ccccc2NC1=O)NNc1cc(Cl)ccc1Cl (stereo not drawn)	-0.4%	·	·	?
N=C1C(c2nc(-c3ccc(F)cc3)cs2)=C(O)CN1Cc1ccc(Cl)cc1	?	-6	-4%	-24%
Cc1cccc(NC(=O)CCC(=O)OCC(=O)c2ccc(Oc3ccc([N+](=O)[O-])cc3)cc2)c1	0.6%	-2	-14%	19%
CCOc1ccc(NC(=O)CN(C)C(=O)c2ccc(COc3ccccc3)cc2)cc1OCC	-4.8%	·	·	2%
COC(=O)c1ccc(Cn2nc(C)c(Cl)c2C)o1	0.3%	-1	-17%	33%
COc1ccc(Cn2c(SCC(=O)NCc3ccco3)nc3ccsc3c2=O)cc1	-3.6%	1	-7%	9%
Cc1ccc(CN2C(=O)C[C@@H](NC(=O)OCC3c4ccccc4-c4ccccc43)C/C=C\C2c2ccc(C)cc2)cc1 (stereo partly drawn)	-1.2%	·	·	-20%
CCOC(=O)CSc1nc2ccccc2c(=O)n1CCCCCC(=O)NCc1ccco1	2.4%	-2	8%	-15%
CN1CCN(/N=C/c2cccc(Cl)c2Cl)CC1	-3.3%	-1	-48%	8%
O=c1cc(CN2CCN(C/C=C/c3ccccc3)CC2)c2cc(O)ccc2o1	-3.7%	2	19%	8%
O=C(CN1C(=O)/C(=C2/SC(=S)N(CCS(=O)(=O)O)C2=O)c2ccccc21)Nc1cccc(Br)c1	?	·	·	-3%
COC(=O)c1c(N2C(=O)[C@H]3[C@@H](C2=O)[C@]2(C(=O)Nc4c(C)cc(C)cc42)N2CCC[C@@H]32)sc(C)c1C	1.2%	-16	5%	-8%
Cc1nn(C)cc1NC(=O)Cn1nc(C(F)(F)F)cc1C1CC1	3.2%	-12	-3%	4%
CCn1nccc1C(=O)Nc1nccs1	1.1%	5	0%	2%
COc1cccc(Nc2nc(Nc3ccc(Cl)c(C(=O)O)c3)nc(C)c2[N+](=O)[O-])c1	-0.2%	·	·	7%
O=C(NCC1CCCN1S(=O)(=O)c1cccs1)C(=O)Nc1cccc(F)c1 (stereo not drawn)	0.7%	·	·	-11%

Screens: PubChem BioAssay, National Center for Advancing Translational Sciences (NCATS)

Not all compounds are listed, so the mix of outcomes need not match the whole.
